Arbovirus inh: antivirals against arbovirus infection, primary screen, cell-based, full library, 10K replicate subset | arbovirus infection cell-based antiviral screen | hit rate 0.37% among 200,000 | inhibition, % at 10 µM;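 active means inhibition from about 30%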;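 further: bluetongue infection of BSR cells; cell survival read as ATP light after 72 h; 0% = infected wells without compound and 100% = uninfected wells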
Mtb growth: M. tuberculosis H37Rv growth inhibitors, H37Rv strain (AID 1626) | M. tuberculosis H37Rv growth inhibition; higher % means a stronger effect | one-dose inhibition, % at 10 µM; IC50 in µM for titrated hits | hit rate 0.95% among 220,000;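 active means confirmed in a dose series; inconclusive means inhibition above 80% but not taken into the dose series; inactive means below 80% or under 30% at every dose of the series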;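 further: bacteria incubated seven days before Alamar blue readout; 0% = bacteria only wells and 100% = bacteria with antibiotic wells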
YopH inh: YopH tyrosine phosphatase inhibitors, primary screen, biochemical, fluorescence Ex485/Em525 | inhibition, %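 (about 10 µM by stock and volumes)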 | hit rate 0.16% among 140,000;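 active means inhibition of 50% or more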;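 further: controls were vehicle for no effect and minimum signal wells for full effect; inactives centre near -20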
Mtb bLac sens: beta-lactam sensitization of Mtb H37Rv, H37Rv; M. tuberculosis H37Rv growth with meropenem, percent inhibition; hits of this screen are not shown here; inhibition, % at 25 µM; hit rate 0.27% among 330,000;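 active means about 74% or more and at least 40 points above the plate without the antibiotic, then above 30% in a dose series; inconclusive means first-round hits that could not be retested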;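 further: growth measured after seven days incubation then overnight dye step; 0% = bacteria only wells and 100% = bacteria with antibiotic; twin plates without the antibiotic show which effects depend on it; some results filed as inactive read as strong as hits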
RecA splice inh: Mtb RecA intein splicing inhibitors, primary screen, biochemical, fluorescence, HTS. AID 2221, 2009. inhibition, %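 (about 9 µM by stock and volumes)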. Protein RecA (Mycobacterium tuberculosis (strain ATCC 25618 / H37Rv)), P9WHJ3. hit rate 0.75% among 290,000. cell-free RecA intein splicing; in the data active means inhibition above about 30%; inconclusive means no clear call, values can overlap the other calls;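 further: 0% = vehicle wells and 100% = reference inhibitor control wells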
Target sequence (P9WHJ3 whole entry, looked up, canonical isoform): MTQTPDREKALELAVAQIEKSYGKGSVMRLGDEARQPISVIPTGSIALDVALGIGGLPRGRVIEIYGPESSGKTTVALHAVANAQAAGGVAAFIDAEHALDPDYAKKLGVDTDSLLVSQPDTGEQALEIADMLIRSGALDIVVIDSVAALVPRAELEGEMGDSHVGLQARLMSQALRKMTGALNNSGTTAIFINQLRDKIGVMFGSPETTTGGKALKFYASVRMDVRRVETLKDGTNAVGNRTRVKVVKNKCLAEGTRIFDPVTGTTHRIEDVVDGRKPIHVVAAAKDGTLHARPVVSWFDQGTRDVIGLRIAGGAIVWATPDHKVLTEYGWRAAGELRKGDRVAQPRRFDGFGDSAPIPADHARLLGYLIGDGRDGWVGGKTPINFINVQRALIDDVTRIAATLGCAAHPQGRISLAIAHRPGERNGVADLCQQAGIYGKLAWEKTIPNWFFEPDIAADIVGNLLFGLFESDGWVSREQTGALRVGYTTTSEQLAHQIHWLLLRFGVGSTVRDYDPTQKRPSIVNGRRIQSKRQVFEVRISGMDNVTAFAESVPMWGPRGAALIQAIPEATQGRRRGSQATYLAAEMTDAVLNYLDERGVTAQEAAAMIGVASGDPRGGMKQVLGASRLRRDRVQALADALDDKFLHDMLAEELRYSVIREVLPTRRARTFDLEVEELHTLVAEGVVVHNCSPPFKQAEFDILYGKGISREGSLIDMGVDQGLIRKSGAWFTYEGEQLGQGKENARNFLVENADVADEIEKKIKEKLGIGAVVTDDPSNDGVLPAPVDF
Arbovirus inh repeat: second read-out of Arbovirus inh, no call of its own (marks repeat the call); inhibition, %; measured here: 10K subset replicate screen; many hits read low in the repeat;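 first of two repeat runs on a subset; 0% = infected and 100% = uninfected wells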
Starred values were filed as active, the others as inactive; ? = inconclusive; . = not tested or not shown. Not all compounds are listed; the hit share may differ from the screen's.

Start of the data: the first 3 entries as a preview:
SMILES	Arbovirus inh	Mtb growth	YopH inh	Mtb bLac sens	RecA splice inh	others
Cn1c(C(O)C(O)c2ccccc2)nc2ccccc21 (configuration not stated)	1	6%	.	-4	0.4
CNC(=O)NC(=O)C(C)OC(=O)c1oc2ccccc2c1CSc1ccc(Cl)cc1 (configuration not stated)	2	4%	-28	3	0.4
COc1ccc(-c2csc3ncnc(N4CCN(S(=O)(=O)c5ccccc5C#N)CC4)c23)cc1	.	.	.	-10	9.8

Results, from the first entry:
SMILES	Arbovirus inh	Mtb growth	YopH inh	Mtb bLac sens	RecA splice inh	others
Cn1c(C(O)C(O)c2ccccc2)nc2ccccc21 (configuration not stated)	1	6%	.	-4	0.4
CNC(=O)NC(=O)C(C)OC(=O)c1oc2ccccc2c1CSc1ccc(Cl)cc1 (configuration not stated)	2	4%	-28	3	0.4
COc1ccc(-c2csc3ncnc(N4CCN(S(=O)(=O)c5ccccc5C#N)CC4)c23)cc1	.	.	.	-10	9.8
O=C(Oc1c(CN2CCOCC2)cc(Cl)c2cccnc12)c1cccs1	-4	10%	.	94	1.1
Cc1cc(C)n(-c2nc(NCCCN(C)C)c3c4c(sc3n2)COC(C)(C)C4)n1	.	7%	.	9	-1.8
O=C1CCC(C(=O)N2CCSCC2)CN1CCc1cccc(F)c1 (configuration not stated)	.	.	.	-3	-4.0
O=C(c1cnn2c(C(F)(F)F)cc(-c3ccc(F)cc3)nc12)N1CCc2ccccc2C1	.	.	.	?	13
Cc1cccc(NC(=O)c2ccc(OC3CSC3)cc2)c1	-2	12%	-38	-3	-2.0
Cc1ccc(C(=O)Nc2cccc(Oc3ccccc3)c2)o1	0	.	-8	1	12
Cc1cc(Cl)ccc1C(=O)C1CCCN(Cc2ccon2)C1 (configuration not stated)	9	7%	.	-4	-2.1
O=C(COc1ccc2ccccc2c1)Nc1ccc(S(=O)(=O)N2CCCCCC2)cc1	-7	5%	-15	3	-3.0
CCOc1ccc(C(=O)N2CCc3ccccc32)cc1OCC	.	.	.	3	0.4
COc1cc(Cl)ccc1OCc1cc(C(=O)NCc2cc(C(C)C)no2)no1	.	.	.	-4	-1.6
O=C(CN1C(=O)NC2(CCCCC2)C1=O)NCC(=O)Nc1ccc(F)c(F)c1	.	.	.	-10	-1.9
COc1ccccc1-n1c(=O)[nH]c2c(C(N)=O)nc(CC(C)C)nc21	3	0%	-28	6	2.1	Arbovirus inh repeat=-8
COc1cc2c(cc1NC(=O)c1ccco1)CCCC2	10	6%	-22	0	4.8	Arbovirus inh repeat=-1
O=c1[nH]c(=S)n(CCC2=CCCCC2)c(O)c1/C=N/N1CCOCC1	.	-3%	.	-3	0.4
CCN1C(Nc2ccccc2)=NC[C@@H]1Cc1ccccc1	.	.	.	-7	-0.8
Cc1[nH]c2ccccc2c1/C=N/n1cnnc1	8	4%	-48	-9	-0.2
COc1ccc2[nH]c3c(=O)n(/N=C/[C@H]4C(C)C=C(C)CC4C)c(=O)[nH]c3c2c1 (some centres not stated)	-20	12%	-32	-4	0.1
O=C(O)Cn1c(=O)cnc2ccccc21	-1	1%	-23	2	-2.3
COC(=O)c1c(C(=O)OC)c(-c2ccc(F)cc2)n2c1CSC2	.	.	.	-5	-0.8
COc1ccccc1NC(=O)Cc1nnc(SCC(=O)Nc2ccc(F)cc2F)n1C	.	.	.	4	1.0
COC(=O)c1c(NC(=O)CN2CCN(c3ncccn3)CC2)sc(C(N)=O)c1C	.	.	.	-16	2.1
CC(=O)Cn1ncc(N(C)Cc2ccccc2)c(Cl)c1=O	.	.	.	32	-1.4
O=C(COc1ccc(Cl)cc1)NCCNc1ccc([N+](=O)[O-])cc1	.	.	.	4	2.3
O=C(Oc1ccc(Cl)cc1)c1ccc(N2CCOCC2)c([N+](=O)[O-])c1	-7	1.5µM*	-10	99	1.2
Cc1cc(C)c2[nH]c(=O)c(CN(Cc3ccccc3)C(=S)NCCCN(C)C)cc2c1	-30	6%	.	5	3.0
COC(=O)c1ccc(N/C(C)=C/C(=O)c2ccc(C)o2)cc1	-5	?	38	96	-7.8
CCc1noc(C)c1C(=O)N1CCCC(CCC(=O)NCc2ccc(F)c(F)c2)C1 (configuration not stated)	4	8%	.	1	0.1
COc1ccc(NC(=O)c2ccccc2NC(=O)c2cccs2)cc1	.	.	.	9	0.5
Cn1cnnc1SCc1ccccc1	-6	.	-13	-9	-4.0
COc1ccc(C2=NS(=O)(=O)N(C)C(C(=O)N3CCCCC3C)=C2)cc1 (configuration not stated)	.	.	.	4	-6.1
O=C(/C=C/c1ccccc1Cl)NCc1ccccc1	-3	0%	3	3	1.4
COc1ccc(C(=O)NC2CCN(C(=O)Nc3ccc(F)cc3)CC2)cc1	.	.	.	-1	-2.9
COC(=O)c1ccccc1NC(=O)COC(=O)CO/N=C(\C)c1ccc2c(c1)OCO2	.	.	.	-5	0.7
COc1ccc(C2N(C(=O)CN3CCOCC3)CCN2S(=O)(=O)c2ccccc2)cc1 (configuration not stated)	14	6%	-42	-5	.
CCCCNC(=O)c1ccc2c(c1)C(=O)N(Cc1ccncc1)C2=O	.	.	.	3	-3.6
COc1cccc(/C=N/N2C(=O)CSC2=S)c1O	-12	-6%	-38	2	-2.5
COc1ccccc1-c1nnc(Sc2nc([N+](=O)[O-])nn2C)o1	4	?	-17	100	22
CCOC(=O)c1c(NC(=O)c2cc(C)oc2C)sc(C(=O)Nc2ccc(Cl)cc2)c1C	-1	5%	-18	-1	1.4
Cc1c2n(c3ccccc13)CCN(C)C2	.	.	.	1	-1.8
CCCC(=O)C1=C(O)C(c2cccc(Oc3ccccc3)c2)CCC1=O (configuration not stated)	8	-6%	.	2	2.0
Cc1nc(NC(=O)CSc2nnc(-c3ccncc3)n2C)sc1C	.	.	.	-8	-2.0
CN1CCCC1CCNc1ccc2oc3ccccc3c(=O)c2c1 (configuration not stated)	.	.	.	-7	-5.3
N#Cc1nc(-c2cccs2)oc1N1CCN(Cc2ccccc2)CC1	7	1%	-30	2	6.4
c1ccc(Nc2cc(Nc3ccccc3)[nH]n2)cc1	-32	20%	-21	11	3.7
O=C(Nc1nccs1)C(c1ccccc1)N1CCCCC1 (configuration not stated)	6	1%	.	-1	-2.3
COCCCn1c(SCC(=O)n2c(C)c(C)c3ccccc32)nnc1-c1ccoc1C	0	1%	-39	-1	3.1
CC(CC(=O)O)CC(=O)Nc1ccccc1C(=O)O (configuration not stated)	9	-1%	-62	-5	6.2
COCCNc1nc2c(c(=O)n(Cc3ccccc3F)c(=O)n2C)n1C	.	.	.	-4	-0.6
C=CCOc1nc2c(c(=O)n(C)c(=O)n2C)n1Cc1ccc(Cl)cc1	15	1%	-12	10	3.9
CC(C)C[C@@H](CO)N1CCN(Cc2ccc([N+](=O)[O-])cc2)CCC1=O	.	.	.	-4	4.3
CCN(Cc1ccncc1)C(=O)c1cc(COc2ccc(C)c(C)c2)on1	.	.	.	-1	1.9
CCC(CC)C(=O)c1c[nH]c(C(=O)NCc2ccco2)c1	-8	-10%	-21	-11	2.6
CC1Cc2cc(-c3csc(NC(=O)Cc4cccs4)n3)ccc2N1S(C)(=O)=O (configuration not stated)	-24	.	-33	95	-0.1
O=C(NNC(=O)c1ccc(Cl)c([N+](=O)[O-])c1)c1ccncc1	.	.	.	-6	-1.2
CC(=O)Oc1ccc2c(=O)c(-c3ccccc3)coc2c1	-7	71%	.	76	5.0
CC(C)Cn1c(-c2cc([N+](=O)[O-])ccc2Cl)nc2c1c(=O)[nH]c(=O)n2Cc1ccccc1	-23	12%	-32	-6	4.1
CCN(CC)c1ccc(/C=N/NC(=S)NCc2ccccc2)cc1	-1	-5%	-42	-12	0.4

Additional results:
SMILES	Arbovirus inh	Mtb growth	YopH inh	Mtb bLac sens	RecA splice inh	others
O=CNCCCc1nc2ccccc2n1CCc1ccccc1	.	.	.	-4	-1.4
CC(=O)O/N=C/c1c(N2CCOCC2)n(C)c2ccccc12	-4	2%	-5	7	1.5
COc1ccc(-c2nn(-c3ccccc3)cc2C(=O)NC2CCC(C)CC2)cc1 (configuration not stated)	.	.	.	-3	0.4
COc1ccc(/C=N/NC(=S)Nc2ccccc2)cc1COc1cccc(C)c1C	.	-5%	.	10	1.2
CCOC(=O)Cn1nc(-c2ccc(F)cc2)oc1=O	-1	-4%	22	1	-1.7
NS(=O)(=O)c1ccc(CCNC(=O)CCCNC(=O)c2ccc(Cl)cc2)cc1	.	.	.	4	-0.6
O=C(Nc1ccccc1)Nn1cnnc1	.	.	.	4	0.1
Cc1nc(C)c(C(=O)Nc2cccc(Cl)c2)o1	0	-5%	-23	.	-0.2
CC(C)(C)OC(=O)N/N=C\c1cccnc1	5	1%	.	-2	-5.2
CCCCNC(=O)CNC(=O)c1nn(-c2ccc(OC)cc2OC)c(=O)c2ccccc12	.	.	.	-3	0.2
O=C1CC(O)(C(F)F)Oc2ccc3ccccc3c21 (configuration not stated)	-4	-2%	-45	52	-1.5
Cc1ccc(COCCN2CCN(S(=O)(=O)c3ccc(C)cc3)CCC2=O)cc1	0	-6%	-37	0	5.2
CN(C)CCCNC(=O)C1(O)c2cc(Br)ccc2NC(=O)N1c1c(F)cccc1F (configuration not stated)	.	.	.	1	-0.5
O=C(CSc1nncn1-c1ccccc1)Nc1ccc(N2CCOCC2)cc1	-1	3%	-14	-10	-1.0
COC(=O)CN(C#N)c1nc(NCc2ccccc2)nc(OC)n1	.	.	.	98	12
COc1ccc(-c2csc(NC(C)c3nc4cc(Cl)c(Cl)cc4n3CCCO)n2)cc1 (configuration not stated)	.	5%	.	.	17
COC(=O)Nc1sc2c(c1C(=O)NCc1ccco1)CCC2	3	6%	0	.	1.8
CCOC(=O)Cc1csc(NC(=O)c2cc(OC)cc(OC)c2)n1	2	-2%	-34	0	-1.3
O=C(CCCCCN1C(=O)c2cccc3cccc(c23)C1=O)NCCCO	.	.	.	-1	-2.8
CC(OC(=O)c1ccc2noc(-c3ccccc3)c2c1)C(N)=O (configuration not stated)	.	.	.	-1	-6.9
COc1ccc(/C=C(\NC(=O)c2ccccc2)C(=O)NCc2cccnc2)cc1	.	.	.	-4	0.6
O=C(NC1CCCCC1)C(c1ccc2ncccc2c1)N(Cc1cccs1)C(=O)c1cccs1 (configuration not stated)	-2	3%	-20	82	-7.5
CCOC(=O)N1CCN(C(=O)C2CCN(S(=O)(=O)c3ccc(F)cc3)CC2)CC1	0	1%	.	-14	-0.1
CC(=O)OCc1c(COC(C)=O)[n+](=O)c2ccccc2n1[O-]	3	3%	-10	-10	0.8
COc1cccc(CN2CCC(C(=O)N3CCN(Cc4ccc5c(c4)OCO5)CC3)CC2)c1	.	.	.	-11	-1.8
CN(CCC#N)C(=O)Cn1nc(Cc2ccncc2)c2ccccc2c1=O	3	1%	-51	2	49*	Arbovirus inh repeat=0
CCOc1cc(C(=S)N2CCOCC2)ccc1O	8	0%	-28	-8	-3.0
CC(=O)Nc1ccc(C(=O)OCC(=O)c2ccc(C)c([N+](=O)[O-])c2)cc1	4	0%	-43	24	-1.3
COc1cccc2cc(C(N)=O)/c(=N/NC(=O)COc3ccc(Cl)cc3)oc12	-23	1%	-28	4	1.0
O=C(NCc1ccccc1)C1=C[C@H](c2coc3ccccc3c2=O)C[C@H](OCc2ccc(CO)cc2)O1	-6	2%	.	-20	6.3
O=C(NCC1CCCO1)c1ccc(Cl)c(S(=O)(=O)N2CCCCC2)c1 (configuration not stated)	.	.	.	-10	-0.1
COc1ccc2c(c1O)-c1ccccc1CCN(C)C2	-2	-17%	.	-3	-2.8
COc1ccc(C(C(=O)NC2CCCCC2)N(Cc2cccs2)C(=O)Cc2c[nH]c3ccccc23)cc1 (configuration not stated)	-26	3%	-10	7	1.0
Cc1cc(N2CCN(c3cccc(C(F)(F)F)c3)CC2)n2ncnc2n1	5	14%	-46	5	1.6
COc1ccc(/C=C/C(=O)NC(=S)NN2CCCCC2c2cccnc2)cc1 (configuration not stated)	-8	-7%	-21	0	2.5

5 structures already listed, sorted by molecular weight, high to low.
SMILES	Arbovirus inh	Mtb growth	YopH inh	Mtb bLac sens	RecA splice inh	others
COc1cccc(CN2CCC(C(=O)N3CCN(Cc4ccc5c(c4)OCO5)CC3)CC2)c1	.	.	.	-11	-1.8
COc1ccc(/C=C/C(=O)NC(=S)NN2CCCCC2c2cccnc2)cc1 (configuration not stated)	-8	-7%	-21	0	2.5
O=C(NCC1CCCO1)c1ccc(Cl)c(S(=O)(=O)N2CCCCC2)c1 (configuration not stated)	.	.	.	-10	-0.1
CN(CCC#N)C(=O)Cn1nc(Cc2ccncc2)c2ccccc2c1=O	3	1%	-51	2	49*	Arbovirus inh repeat=0
CCOc1cc(C(=S)N2CCOCC2)ccc1O	8	0%	-28	-8	-3.0
